Compound activity: PubChem, several laboratories
HIV Env fusion = HIV envelope-mediated fusion inhibition | 1.1% of 360,000 active | HeLa-JRFL Env/CEM21 cell fusion, luciferase | inhibition, % at 12.3 µM;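 active means mean replicate inhibition score of at least 50 and every replicate individually at or above 50; inconclusive means only one of the two criteria met; inactive means mean below 50 and not all replicates reaching 50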;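 further: 0% = plate neutral controls and 100% = maraviroc near 300 nM; one replicate is shown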
Yeast UUG start = yeast start codon fidelity modulation; activity score, % at 18.7 µM; 0.13% of 350,000 active; S. cerevisiae UUG-firefly luciferase reporter, luminescence/redox ratio;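 active means replicate mean at a twofold rise or more, about +100% in these data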;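 further: firefly luciferase made from a UUG start codon reports start codon fidelity; reporter light over untreated wells divided by growth signal over untreated wells; some hits fall short of that in this replicate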
Rce1 inh = blocks yeast Ras-converting enzyme | AID 2563 | Q03530 | yeast membranes, quenched prenylated peptide cleavage fluorescence | calls only | 0.27% of 290,000 active;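 active means fall in fluorescence gain of 50% or more versus controls, with final raw signal at or below 3038400; inconclusive means same 50% fall but final raw signal above 3038400; inactive means fall in fluorescence gain under 50%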;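 further: plate controls were neutral control wells for no effect and wells lacking membranes for full effect; tested at 10 µM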
eIF4H inh = inhibitors of RNA binding by human eIF4H | inhibition, % at 35 µM | Q15056 | eIF4H fluorescence polarization binding assay | AID 2012 | 0.94% of 290,000 active;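 active means 50% or more with normal probe brightness, or confirmed in later tests; inconclusive means above 50% with abnormal brightness, or retests that disagree; inactive means below 50% or failed in later tests; about a fifth of its hits are not listed in these tables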;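 further: calls also rest on retests at 20 µM and on dose response follow-up; 0% = protein and probe with vehicle and 100% = probe without protein; strong numbers were not always called active; many hits fall short of the cut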
PABP polyA inh = PABP-poly(A) binding inhibition; P11940; PABP-poly(A) RNA binding, fluorescence polarization; inhibition, % at 35 µM; 1% of 290,000 active; AID 2014;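 active means 50% or more with normal probe brightness, or confirmed in later tests; inconclusive means above 50% with abnormal brightness, or retests that disagree; inactive means below 50% or failed in later tests; about a fifth of its hits are not listed in these tables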;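 further: calls also rest on retests at 20 µM and on dose response follow-up; controls were probe without protein and protein plus probe with vehicle; some compounds called inactive have numbers as strong as hits; many hits fall short of the cut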
Target sequence (P11940 whole entry, looked up): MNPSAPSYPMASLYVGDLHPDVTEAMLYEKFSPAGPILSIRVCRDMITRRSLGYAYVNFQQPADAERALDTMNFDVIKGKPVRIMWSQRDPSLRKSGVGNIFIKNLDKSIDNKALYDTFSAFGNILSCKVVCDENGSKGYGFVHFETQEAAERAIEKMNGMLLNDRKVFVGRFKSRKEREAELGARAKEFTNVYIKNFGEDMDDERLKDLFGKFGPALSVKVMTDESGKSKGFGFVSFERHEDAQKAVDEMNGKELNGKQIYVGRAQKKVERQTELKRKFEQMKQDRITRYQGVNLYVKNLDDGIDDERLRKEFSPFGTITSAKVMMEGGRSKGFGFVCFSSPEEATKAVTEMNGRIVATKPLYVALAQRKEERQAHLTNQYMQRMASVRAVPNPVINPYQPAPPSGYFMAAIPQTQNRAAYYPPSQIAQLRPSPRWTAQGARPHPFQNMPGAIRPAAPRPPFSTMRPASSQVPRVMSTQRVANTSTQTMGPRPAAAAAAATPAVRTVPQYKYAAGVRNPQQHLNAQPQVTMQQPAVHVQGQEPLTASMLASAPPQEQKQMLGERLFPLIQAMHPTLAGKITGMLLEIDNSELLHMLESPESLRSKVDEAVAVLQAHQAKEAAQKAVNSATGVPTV
CSC inhib = cancer stem cell inhibition. cancer stem cell-like cells viability, luminescence. inhibition, % at 7.5 µM. 1.1% of 300,000 active. AID 2717;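 active means mean at 75% or more and at least half the replicates too; inconclusive means mean and replicates disagree; tested in HMLE shEcad cells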;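 further: 0% = median of negative and 100% = median of positive control wells; the first replicate is given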
MT1-MMP act inh = inhibitors of human MT1-MMP activation | 0.061% of 360,000 active | HT1080 RFP-PRO-GFP cells, GFP/RFP ratio fluorescence, overnight; percent of plate control window, DMSO zero | GFP/RFP ratio change, % at 20 µM | AID 651647;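 active means GFP/RFP ratio change of at least 30% with cell ATP level not reduced by more than half and red fluorescence within 50% of control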; further: strong numbers were not always called active
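Assay system – RFP-PRO-GFP reporter HT1080 cells · Compound dosing – single dose of 20 µM compound, 1% DMSO final · Incubation – overnight compound exposure at 37 °C · Measure – GFP/RFP fluorescence ratio · Benchmarks – DMSO wells and RFP-L50D-GFP cells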
eIF4H inh retest = second read-out of eIF4H inh, no call of its own (marks repeat the call); inhibition, %; compound at 20 µM; confirmation average;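 mean of two retest wells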
PABP polyA inh retest = second read-out of PABP polyA inh, no call of its own (marks repeat the call); inhibition, %; compound at 20 µM; confirmation repeats;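 mean of two retest wells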
MT1-MMP act inh RFP = second read-out of MT1-MMP act inh, no call of its own (marks repeat the call); RFP signal change, %; measured here: RFP expression control read;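 0 = vehicle wells; hits needed this value within 50% of zero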
* = called active by the depositor; i = inactive; ? = inconclusive; . = not tested or not shown; & = joins results of further samples. Only part of the results is shown, so the mix of outcomes need not match the whole.

SMILES	HIV Env fusion	Yeast UUG start	Rce1 inh	eIF4H inh	PABP polyA inh	CSC inhib	MT1-MMP act inh	MT1-MMP act inh RFP	others
Cc1cccc(C(=O)Nc2ccc(Cl)cc2C(=O)c2ccccc2)c1	-2.3	.	i	2.4	-3.2	-0.8	-0.6	-2.3
c1ccc2c(CNC3CCCCC3)c[nH]c2c1	30.9	.	i	-5.6	2.5	1.8	.	.
O=P(c1ccccc1)(c1nc2ccccc2s1)N1CCOCC1 (stereo not given)	1.8	-16.9	i	-5.2	4.1	-7.5	-4.8	-5.4
Cn1c(=O)cc(SCC(=O)N2CCC3(CC2)OCCO3)c2ccccc21	-72.4	-8.7	i	6.0	8.0	3.4	6.8	5.8
CN(C)CCOC(=O)c1cn(Cc2ccccc2)c2ccccc12	.	-1.8	i	-5.8	-12.9	59.2	-3.3	-2.6
Cc1ccc(-n2c(O)c(C=NCc3cccnc3)c(=O)[nH]c2=O)cc1C	.	-0.1	i	-3.5	-2.8	.	1.1	5.5
COC(=O)C1=C(c2c(C)noc2C)C[C@@H]2CC[C@H]1N2C(=O)NCc1ccc(C(F)(F)F)cc1	49.9	-18.7	.	.	.	12.4	0.5	-1.1
S=C(NC1CCCCC1)N1CCC(c2cnc[nH]2)CC1	14.5	-17.0	i	.	.	7.7	0.2	4.8
O=c1[nH]c(=S)[nH]c(O)c1N=Nc1ccc(OC(F)F)cc1	-87.4	.	i	-20.5	8.6	7.6	7.1	-0.9
CCOC(C(=O)OCC(O)CN(CC)CC)(c1ccccc1)c1ccccc1 (stereo not given)	-50.6	-9.8	i	4.9	-0.5	-4.1	5.0	2.3
CC(=O)CC(c1ccccc1[N+](=O)[O-])c1c(O)c2ccccc2oc1=O (stereo not given)	0.8	-10.0	i	-4.5	4.1	-8.3	-0.7	5.1
c1ccc(C(c2ccccc2)c2ccncc2)cc1	1.1	-7.2	.	.	.	.	-5.7	-9.4
CCN1CCN(C(=O)Cc2coc3cc(C)cc(C)c23)CC1	.	-22.5	i	-5.0	19.6	-1.2	11.7	5.3
CC(=O)O[C@H]1CC[C@@]2(C)[C@H](C1)C(=O)C[C@H]1[C@@H]3CC[C@@H]4[C@@H](CN5C[C@@H](C)CC[C@H]5[C@@]4(C)O)[C@@H]3C[C@@H]12	17.2	-10.0	i	-2.3	9.3	-5.7	0.9	3.1
CC12C=CC(=O)C=C1CCC1C2C(=O)CC2(C)C(=O)CCC12 (stereo not given)	13.3	-24.9	.	.	.	.	3.2	-0.8
C=CCn1c(O)c(/C=C2/C=CC=N2)c(=O)[nH]c1=O	-53.7	-1.6	i	88.5*	1.7*	10.1	18.6	51.2	eIF4H inh retest=91.0*;PABP polyA inh retest=97.3*
CCOC(=O)c1c(C)c(P(=S)(N2CCOCC2)N2CCOCC2)n(C)c1C	.	-3.5	i	-8.8	-6.9	-4.8	-2.0	1.6
O=C1NCN(c2ccccc2)C12CCN(C(c1cc3ccccc3o1)c1nnnn1Cc1ccccc1)CC2 (stereo not given)	-115.5	-5.6	.	.	.	.	-3.1	-10.3
CCN(N=Nc1nonc1OC)c1nonc1OC	-247.2	-18.1	i	-4.9	7.4	-20.2	3.0	2.5
Cc1ccc(OC(=O)N(C)C[C@@H]2OCc3cnnn3CCCC(=O)N([C@H](C)CO)C[C@@H]2C)cc1	1.9	9.4	.	.	.	.	2.0	3.2
COc1ccc(NC2=NCCCS2)cc1OC	-1.2	-9.6	i	2.1	7.9	-6.3	-0.3	2.1
COc1cccc(C2C([N+](=O)[O-])=C(N)Oc3c2c(=O)oc2ccccc32)c1 (stereo not given)	15.4	-19.9	i	-2.7	14.6	16.5	1.4	-0.5
CSc1ccc(CN2CCN(C(=O)COc3ccc(C)cc3)CC2)cc1	11.5	.	i	-7.1	-2.5	16.4	-2.0	-13.6
COc1ccc(-c2cc(C(=O)N3CCC4(CC3)OCCO4)c3ccccc3n2)cc1	-11.0	.	i	2.8	-2.2	-9.4	0.5	2.1
COc1ccccc1N1CCN(Cc2cccc(Br)c2)CC1	15.8	4.0	i	14.9	-3.3	-1.5	4.8	-2.9
COC(=O)C1=C(N)OC(C)=C(C(C)=O)C12C(=O)N(C)c1ccccc12 (stereo not given)	.	-5.2	i	-0.7	-2.2	-8.8	1.3	5.1
C[C@H]1[C@@H](c2ccccc2)O[C@@H](c2ccccc2Br)N1C	-14.2	-15.1	i	.	.	-0.6	3.7	6.8
CN1CCN(c2ccc3c(c2)S(=O)(=O)c2ccccc2C3=O)CC1	-9.9	-19.5	i	.	.	-0.4	-20.0	-3.6
COC(=O)C1=C(c2cccc(OC)c2OC)C[C@@H]2CC[C@H]1N2C(=O)NCCNC(C)=O	20.3	9.6	i	.	.	-12.2	-2.3	0.8
COc1cc(C(=O)N2C[C@H]3C[C@@H](C2)c2cccc(=O)n2C3)cc(OC)c1OC	.	-3.0	.	-9.2	3.9	-4.2	0.6	3.0

Five entries picked at random from those above, as already listed:
SMILES	HIV Env fusion	Yeast UUG start	Rce1 inh	eIF4H inh	PABP polyA inh	CSC inhib	MT1-MMP act inh	MT1-MMP act inh RFP	others
CC12C=CC(=O)C=C1CCC1C2C(=O)CC2(C)C(=O)CCC12 (stereo not given)	13.3	-24.9	.	.	.	.	3.2	-0.8
CN1CCN(c2ccc3c(c2)S(=O)(=O)c2ccccc2C3=O)CC1	-9.9	-19.5	i	.	.	-0.4	-20.0	-3.6
COC(=O)C1=C(c2cccc(OC)c2OC)C[C@@H]2CC[C@H]1N2C(=O)NCCNC(C)=O	20.3	9.6	i	.	.	-12.2	-2.3	0.8
Cc1ccc(-n2c(O)c(C=NCc3cccnc3)c(=O)[nH]c2=O)cc1C	.	-0.1	i	-3.5	-2.8	.	1.1	5.5
Cc1ccc(OC(=O)N(C)C[C@@H]2OCc3cnnn3CCCC(=O)N([C@H](C)CO)C[C@@H]2C)cc1	1.9	9.4	.	.	.	.	2.0	3.2

Next results
SMILES	HIV Env fusion	Yeast UUG start	Rce1 inh	eIF4H inh	PABP polyA inh	CSC inhib	MT1-MMP act inh	MT1-MMP act inh RFP	others
Cc1cc(Cl)ccc1OCC(=O)O	-22.0	-10.3	i	0.8	-1.1	-2.9	0.6	1.5
CSc1ccc(CN2CCN(Cc3ccccc3Cl)CC2)cc1	12.0	.	i	6.8	22.0	19.1	2.5	-2.3
O=P(O)(O)Cc1c(Cl)cccc1Cl	-1.2	-3.6	.	-0.7	15.1	1.2	4.7	7.4
Cc1ccc(S(=O)(=O)N2Cc3cc(-c4cccc(F)c4)ccc3-n3nncc3C2)cc1	-7.4	-10.2	.	.	.	.	10.8	5.5
COc1ccc(C(=O)C2CCCN(Cc3ccc(C)s3)C2)cc1OC (stereo not given)	4.7	.	i	-4.8	-3.5	5.5	-0.3	3.2
O=C1NC(=O)N(CCC2=CCCCC2)C(=O)/C1=C/c1cccs1	-56.7	-31.4	i	25.4	-18.9	10.8	2.9	5.6
C/C(=N\NC(=O)c1ccncc1)c1c(O)n(Cc2ccccc2)c(=O)[nH]c1=O	-2.4	-0.9	i	1.4	2.0	0.4	-4.1	1.7
C=CCn1c(O)c(C(C)=NCCO)c(=O)[nH]c1=O	-25.5	3.5	i	0.1	-2.4	-4.9	-0.7	2.3
COC(=O)C12CCc3cc(OC)ccc3C1=CC(=O)C2 (stereo not given)	-82.0	-1.6	.	.	.	.	1.9	1.1
CCCN(CCC)C1CCc2cccc(O)c2C1 (stereo not given)	-2.8	-11.2	i	.	.	-10.5	0.4	3.8
CC1(C)C(C(=O)NN2C(=O)c3ccccc3C2=O)C1(C)C	.	-13.9	i	-8.2	-3.4	-3.6	0.9	5.1
O=C(O)c1ccccc1NC(=O)N1C[C@H]2C[C@@H](C1)c1cccc(=O)n1C2	.	-18.7	i	2.1	5.5	16.2	-1.9	3.4
CCn1cc(C(=O)O)c(=O)c2ccc(C)nc21	-6.6	11.1	i	8.4&5.3	29.7&2.5	0.4	1.8	3.5
COc1ccc2[nH]c(C)c(CCNCc3cc(OC)c4c(c3)OCO4)c2c1	.	-5.1	.	.	.	1.3	21.2	3.3
COC(=O)C1=C(c2cccc(OCc3ccccc3)c2)C[C@@H]2CC[C@H]1N2C(=O)NCCOc1ccccc1	-19.4	-27.5	.	.	.	15.4	0.6	-11.9
CSCCC(c1nnnn1-c1c(C)cccc1C)N1CCC(n2c(=O)[nH]c3ccccc32)CC1 (stereo not given)	-19.5	-9.1	.	.	.	.	-2.4	-14.3
Cn1cc(CCC(=O)N2CCC3(CC2)OCCO3)c2ccccc21	-11.9	-10.7	i	1.8	0.7	-6.5	-4.7	0.8
C/C=C1/C[N+]2(C)CCC34C(=C(C=O)[C@H]1C[C@@H]32)Nc1ccccc14 (stereo not given in full)	21.2	-5.5	.	.	.	-2.3	1.7	3.8
COc1ccc(CN2Cc3cnnn3-c3ccccc3C2C#N)cc1 (stereo not given)	-48.1	-21.6	.	.	.	.	6.5	-19.0
CC(NCc1ccccc1C(F)(F)F)C(O)c1ccccc1 (stereo not given)	5.5	-9.1	i	-5.7	11.6	-6.5	-5.4	-2.3
COC(=O)Nc1ccc(N=C(N)N[N+](=O)[O-])cc1	-11.3	.	i	22.8	0.1	-6.3	-1.0	8.7
CCN(CC)c1ccc(/C=N/c2sc3c(c2C#N)C2CCN3CC2)c(O)c1	.	.	.	?	0.9	52.6	-106.9	0.8
Oc1ccc(/C=N/NP(=S)(c2ccccc2)c2ccccc2)cc1O	-8.7	-32.2	.	-2.1	-11.6	35.5	1.6	-4.7
COc1ccc(Cl)cc1N=Cc1c(O)n(C)c(=O)n(C)c1=O	17.4	.	i	12.2	-8.1	-14.9	3.3	2.7
COc1ccccc1-n1c(-c2ccccc2Br)nc2ccccc2c1=O	-18.9	.	i	11.0	2.0	-2.2	0.1	-3.0
N#CCCn1cc(C(=O)Nc2ccccc2Br)c(-c2ccc([N+](=O)[O-])cc2)n1	6.4	.	i	-14.1	-3.5	-14.3	-13.7	-10.4
CCOC(=O)[C@]12Cc3c(cc(OC)c(OC)c3OC)[C@H]1N(Cc1ccccc1)C(=O)c1ccccc12	63.7*	-34.6	.	.	.	.	-0.1	-4.8
O=Cc1cn(Cc2cccc([N+](=O)[O-])c2)c2ccccc12	-28.9	.	i	4.7	2.4	-2.2	-9.7	-9.2
N=c1sccn1Cc1ccc(Cl)cc1Cl	.	-20.3	i	5.3	8.0	-5.5	2.8	4.4
Oc1ccc2c3c1O[C@H]1[C@@H](O)CC[C@@]4(O)[C@@H](C2)N(CC2CCC2)CC[C@]314	2.6	-2.9&-26.1	i	.	.	-4.3&-11.8	3.0&3.9	2.8&5.3

Grouped by structure: those above with a furan ring, fused or not (two)
SMILES	HIV Env fusion	Yeast UUG start	Rce1 inh	eIF4H inh	PABP polyA inh	CSC inhib	MT1-MMP act inh	MT1-MMP act inh RFP	others
CCN1CCN(C(=O)Cc2coc3cc(C)cc(C)c23)CC1	.	-22.5	i	-5.0	19.6	-1.2	11.7	5.3
O=C1NCN(c2ccccc2)C12CCN(C(c1cc3ccccc3o1)c1nnnn1Cc1ccccc1)CC2 (stereo not given)	-115.5	-5.6	.	.	.	.	-3.1	-10.3
